From PubChem BioAssay
Sa ugtP lethal = growth inhibition of S. aureus ugtP deletion strain; growth inhibition, % (concentration not given with the values); AID 1259309; S. aureus RN4220 ugtP deletion, OD600 growth, 16 h; some inactives read as strong as hits; 330,000 tested, 0.54% active;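 active = z-score under -3 and OD600 up to 0.15 on both plates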;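 also: plate controls were untreated wells for no effect and antibiotic for full effect; wells of about 80 µL received 100 nL stock; the first replicate is given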
PrP 5UTR inh = inhibition of PrP 5' UTR reporter expression; cell-based PrP 5' UTR mRNA reporter, plate reader; inhibition, % (no concentration beside the values); 340,000 tested, 0.35% active; AID 488862;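 active = every replicate at 50% or more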;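 also: 0 = median of the neutral control wells; tested in H4 reporter cells; numbers are from one replicate; inactives centre near -14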
RN4220 kill = S. aureus RN4220 growth inhibition; OD600, 16 h; inhibition, % (concentration not given with the values); 330,000 tested, 0.33% active; AID 1259311;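 active = z-score of -3 or lower and OD600 up to 0.18 on both plates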;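 also: plate controls were untreated cells for no effect and reference antibiotic for full effect; stock transfer was 100 nL into about 80 µL; one replicate is shown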
Bead autofluor = flagged as autofluorescent in microsphere protease counterscreen. fluorescence intensity (concentration not given with the values). 360,000 tested, 3.1% active. compound autofluorescence counterscreen, microsphere flow cytometry; stronger effect = higher value;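 active = at least 3 SD above the mean of all compounds, about 16000 in these data; inconclusive = too few beads counted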;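 also: 100 nL of 1 mM stock went into each well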
Mtb hypoxia inh = Mtb hypoxia fluorescent reporter inhibition. 300,000 tested, 0.1% active. AID 1159583. M. tuberculosis hypoxia-regulated fluorescent reporter, fluorescence. fluorescence inhibition, % (concentration not given with the values);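 active = 35 to 45% if threefold the growth effect, above 45% if 1.5-fold the growth effect; inactive = the rest, general growth blockers included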;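 also: wells of about 50 µL received 100 nL stock; 0% = vehicle wells and 100% = reference inhibitor wells; whole bacteria with a GFP reporter of the hypoxia response; strong numbers were not always called active; many hits fall short of the cut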
BJeLR lethal = BJeLR cell viability loss; inhibition, % (concentration not given with the values); AID 1554; BJeLR (HRASV12) viability, CellTiter-Glo ATP luminescence, 48 h; reference of the scale not given here; 300,000 tested, 0.17% active;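 active = replicate mean above 50%; inconclusive = above 50% but judged a plate artefact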;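 also: 50 nL library stock added to about 25 µL; numbers are from one replicate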
Mtb hypoxia inh growth = further read-out of Mtb hypoxia inh, marked with its call; growth inhibition, %; measured here: M. tuberculosis growth (absorbance);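 0% = vehicle and 100% = reference antibiotic; read after six days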
* marks the source's active call; other numbers are inactive results; ? = inconclusive; . = no result given.

SMILES	Sa ugtP lethal	PrP 5UTR inh	RN4220 kill	Bead autofluor	Mtb hypoxia inh	Mtb hypoxia inh growth	BJeLR lethal
COCCNC(=O)C(c1ccco1)N(C(=O)Cn1nnc2ccccc21)c1ccccc1C (stereo not given)	7	-22	2.0	4873	.	.	7
C[C@]12CCC3C(CC[C@H]4C[C@H](O)CC[C@]34C)C1C[C@H](O)[C@@H]2O (stereo not given in full)	8	-13	6.4	3902	2	0	.
Cc1cccc(NC(=O)NC2(C)CCS(=O)(=O)C2)c1 (stereo not given)	5	-15	6.2	5698	6	1	-1
Cc1noc(C)c1S(=O)(=O)Nc1ccc2c(c1)C(=O)N(C(C)CO)CC(C)C(CN(C)S(=O)(=O)c1ccccc1)O2 (stereo not given)	4	.	5.1	.	3	6	.
Cc1cccc(NC(=O)CCn2ccnc2C)c1	3	-13	3.4	2019	.	.	8
COc1ccc(CCN(Cc2cc3cc(C)ccc3[nH]c2=O)C(=O)N2CCCC2)cc1OC	5	-9	11	?	2	7	-6
NC(=O)/C(=C\c1ccccc1)NC(=O)c1ccc(NC(=O)c2ccccc2)cc1	-3	-33	-4.1	4115	1	13	2
CC1(OC(=O)C2CCCC2)C(=O)C=C2C=C(c3ccsc3)N(Cc3ccco3)C=C2C1=O (stereo not given)	2	-11	5.3	2917	-1	-2	-11
Cc1cccc(NC(=O)c2cccc(C(F)(F)F)c2)c1	-2	-32	-1.2	2100	-11	7	0
N/N=C1\CCCc2nonc21	.	-20	.	3951	.	.	11
COC(CN(C(=O)CCl)C(C(=O)NC1CCCCC1)c1ccccc1C)OC (stereo not given)	4	-26	-0.4	2350	-3	8	5
CCOC(=O)Cc1csc(NC(=O)CN2C(=O)c3ccccc3S2(=O)=O)n1	8	2	3.7	3584	13	20	.
COC(=O)[C@H](CC(C)C)NC(=O)Nc1ccc(F)cc1	2	-9	2.0	5837	7	6	0
O=C(N/N=C/c1cccc(O)c1)c1ccccc1O	.	-43	.	6174	.	.	15
COc1cccc(NC(=O)CN(C)C(=O)c2ccccc2Sc2ccccc2C#N)c1	-4	-7	-0.9	3494	-6	6	.
COc1cccc(CC(=O)Nc2ccc3c(c2)OC2(CCCC2)O3)c1	5	-21	0.7	10108	7	6	.
COc1ccc(NC(=S)NNc2ccc([N+](=O)[O-])cc2S(=O)(=O)Nc2ccc(C)cc2C)cc1	7	-16	10	2413	5	2	11
Cc1nc2sccn2c(=O)c1S(=O)(=O)NCC1CCN(Cc2ccccc2Cl)CC1	-2	-2	-1.6	4061	-2	2	0
CCOC(=O)CNC(=O)Cn1cnc2ccc(S(=O)(=O)N3CCC(C)CC3)cc2c1=O	7	2	0.5	4704	.	.	-4
Cc1nn(CC(=O)NCCN2CCOCC2)c(=O)c2cc3sccc3n12	9	-14	3.5	5692	12	1	-1
COc1ccccc1CN1C[C@@H]2C[C@@H](c3ccc(C)cc3)N3CCC[C@@]23C1=O	1	-26	1.0	8339	12	7	-16
Cc1ccc(S(=O)(=O)NCCSc2nnc(N)s2)cc1	7	-23	2.0	3033	.	.	-1
Cn1nccc1C=NNC(=O)c1ccc(Cl)cc1	7	.	4.3	.	8	6	.
COc1cccc(COC(=O)c2sc3nc4n(c(=O)c3c2C)CCC4)c1OC	-2	-10	5.9	5505	22	16	3
C/C(=N\N1CCN(Cc2ccc(C)cc2)CC1)c1ccco1	.	-41	.	2020	.	.	10
CC1CCCCN1C(=O)COC(=O)c1ccc2ccccc2n1 (stereo not given)	7	-1	5.4	?	11	6	.
CN(C)c1ccc(N=Nc2ccccc2C(=O)OCC(=O)Nc2ccccc2C(F)(F)F)cc1	-7	-31	-7.4	1889	13	-6	-7
S=C(NCc1cccs1)NCC1CCCO1 (stereo not given)	2	-21	3.4	3978	5	1	4
Cc1ccc(S(=O)(=O)NCCC(=O)NCc2ccco2)cc1	14	-24	-0.6	2598	7	2	0
O=S(=O)(Nc1ccc2ccccc2n1)c1ccc2c(c1)CCO2	3	-10	2.0	5778	-3	-3	-10

Reprinted from the part before: 4 entries, followed by the next part.
SMILES	Sa ugtP lethal	PrP 5UTR inh	RN4220 kill	Bead autofluor	Mtb hypoxia inh	Mtb hypoxia inh growth	BJeLR lethal
CN(C)c1ccc(N=Nc2ccccc2C(=O)OCC(=O)Nc2ccccc2C(F)(F)F)cc1	-7	-31	-7.4	1889	13	-6	-7
S=C(NCc1cccs1)NCC1CCCO1 (stereo not given)	2	-21	3.4	3978	5	1	4
Cc1ccc(S(=O)(=O)NCCC(=O)NCc2ccco2)cc1	14	-24	-0.6	2598	7	2	0
O=S(=O)(Nc1ccc2ccccc2n1)c1ccc2c(c1)CCO2	3	-10	2.0	5778	-3	-3	-10
CC1=NN(c2ccccc2)C(=O)/C1=C/c1cccc(C)c1	.	-22	.	3815	.	.	-5
CSc1ccccc1NC(=O)COC(=O)Cc1cccs1	0	-20	-0.2	4707	7	1	-1
Cc1cc(C)nc(N=C(NC(=O)C(C)(C)C)Nc2ccccc2)n1	0	.	1.0	.	14	6	.
CCN1Cc2cc(OC)ccc2-c2ccccc2S1(=O)=O	-2	-14	-2.0	2994	-11	-5	.
CCN(CC#CCC1(O)c2ccccc2-c2ccccc21)C(C)C	-4	-16	-0.7	3427	.	.	3
COc1cccc(NC(=O)Cn2nc(Cc3cccnc3)c3ccccc3c2=O)c1	17	-13	3.2	6546	0	0	-8
c1ccc(CSc2nnc3c(n2)OC(c2ccco2)Nc2ccccc2-3)cc1 (stereo not given)	5	2	-3.3	3891	-4	3	4
CC(NC(=O)c1nc[nH]c1C(=O)NC1CCN(C(=O)OC(C)(C)C)CC1)c1ccccc1 (stereo not given)	4	.	5.7	.	2	-4	.
Oc1ccccc1C=NCCN1CCN(CCN=Cc2ccccc2O)C1c1ccccc1O (stereo not given)	2	-11	3.7	4067	15	11	.
CC(=CC(=O)C(F)(F)F)Nc1ccc(C(F)(F)F)cc1	6	.	3.6	.	-1	7	.

Gathered by group: the compounds so far containing fluorine
SMILES	Sa ugtP lethal	PrP 5UTR inh	RN4220 kill	Bead autofluor	Mtb hypoxia inh	Mtb hypoxia inh growth	BJeLR lethal
Cc1cccc(NC(=O)c2cccc(C(F)(F)F)c2)c1	-2	-32	-1.2	2100	-11	7	0
COC(=O)[C@H](CC(C)C)NC(=O)Nc1ccc(F)cc1	2	-9	2.0	5837	7	6	0
CN(C)c1ccc(N=Nc2ccccc2C(=O)OCC(=O)Nc2ccccc2C(F)(F)F)cc1	-7	-31	-7.4	1889	13	-6	-7
CC(=CC(=O)C(F)(F)F)Nc1ccc(C(F)(F)F)cc1	6	.	3.6	.	-1	7	.

Further entries:
SMILES	Sa ugtP lethal	PrP 5UTR inh	RN4220 kill	Bead autofluor	Mtb hypoxia inh	Mtb hypoxia inh growth	BJeLR lethal
CN(C)N=Nc1ccc(S(=O)(=O)NC(Cc2ccccc2)C(=O)O)cc1 (stereo not given)	.	-6	.	3818	.	.	-1
O=C(OC1CCN(c2ncc(C(F)(F)F)cc2Cl)CC1)c1ccc(Cl)cc1	-3	-22	9.6	24209*	9	8	0
CCOC(=O)C1=C(C)NC2=C(C(=O)c3ccccc32)C1c1ccc(O)cc1 (stereo not given)	-14	-6	2.1	2140	2	10	-8
Cc1sc(N)nc1C12CC3CC(CC(C3)C1)C2	4	-7	12	4480	6	4	-1
C#CCOCCOCCOCCNc1nc(N2CCN(C(=O)[C@H](CCCCN)n3cc(CCCC)nn3)CC2)nc(N2CCN(C(=O)[C@H](Cc3ccc(O)cc3)n3cc(CCO)nn3)CC2)n1	.	-30	.	3786	.	.	13
CN(CC(=O)Nc1cccc(F)c1)C(=O)c1cn2ccccc2n1	3	-8	5.6	6562	-1	1	.
COC(=O)C(Cc1c[nH]c2ccccc12)NC(=O)c1cc(-c2ccc(OC)c(OC)c2)oc1C (stereo not given)	-12	-4	8.4	7609	1	-2	0
Cc1ccc(C(=O)CN2C(=O)C(C)Oc3ccccc32)cc1 (stereo not given)	-4	-28	-3.0	4063	-7	-1	-4
CCOC(=O)c1nn(-c2cccc(C)c2)c2nnc(Cc3ccc(C)cc3)c(=O)n12	10	-115	5.1	9765	2	-2	6
CCc1cc(-c2n[nH]c(C)c2-c2nc(C)cs2)c(O)cc1OC	-22	-23	-4.5	3604	-8	0	-3
COC(=O)c1ccc(NC(=O)CSc2nc(N)c(NC(=O)c3ccc(Br)o3)c(=O)[nH]2)cc1	-4	2	-0.9	?	-1	-6	2
COc1ccc(C=NNC(=O)c2cc(-c3cccnc3)nc3ccccc23)c(OC)c1	10	.	1.3	.	-3	5	.
C(=N\n1cnnc1)/c1cccnc1	.	-8	.	3264	.	.	-23
COc1ccc(NC(=O)COC(=O)Cc2ccc(Br)cc2)cc1	6	-8	6.6	2465	-7	1	1
CCN(CC)C(=O)C(=O)c1cccn1-c1ccc(C#N)cc1	9	-7	1.2	2655	5	3	-4
COc1ccc(CCN=c2c([N+](=O)[O-])nn(-c3cccc(C)c3)n2O)cc1OC	22	-18	33	4431	21	12	0
Cc1noc(C)c1COc1ccccc1C(=O)NC(C)CCc1ccccc1 (stereo not given)	0	12	1.8	?	-18	-3	.
C[N+](C)(C)C(Cc1c[nH]c2ccccc12)C(=O)[O-] (stereo not given)	-12	.	4.5	.	.	.	-3
CCOc1cc(C2NC(=O)NC(C)=C2C(=O)NCc2ccccc2)c(Cl)cc1O (stereo not given)	1	-8	0.9	20868*	6	9	-1
COC(=O)c1cc(OC)c(OCc2cc(C(=O)OC)oc2C)c(OC)c1	-2	-11	-12	3360	18	13	-1

As entered above:
PrP 5UTR inh with Cc1cccc(NC(=O)CCn2ccnc2C)c1 is entered as -13
Sa ugtP lethal with COC(CN(C(=O)CCl)C(C(=O)NC1CCCCC1)c1ccccc1C)OC (stereo not given) is entered as 4
PrP 5UTR inh with CN(C)N=Nc1ccc(S(=O)(=O)NC(Cc2ccccc2)C(=O)O)cc1 (stereo not given) is entered as -6
BJeLR lethal with COC(=O)c1cc(OC)c(OCc2cc(C(=O)OC)oc2C)c(OC)c1 is entered as -1
Mtb hypoxia inh growth with Cc1cc(C)nc(N=C(NC(=O)C(C)(C)C)Nc2ccccc2)n1 is entered as 6
RN4220 kill with C[C@]12CCC3C(CC[C@H]4C[C@H](O)CC[C@]34C)C1C[C@H](O)[C@@H]2O (stereo not given in full) is entered as 6.4

The results go on:
SMILES	Sa ugtP lethal	PrP 5UTR inh	RN4220 kill	Bead autofluor	Mtb hypoxia inh	Mtb hypoxia inh growth	BJeLR lethal
Cc1ccccc1OC1=NS(=O)(=O)c2ccccc21	6	-11	3.4	3567	11	4	0
Cc1ccc(Sc2nc3c(c(=O)[nH]c(=O)n3C)n2CCc2ccccc2)cc1	3	-18	6.8	4521	8	6	.
CN(CC(=O)Nc1ccccc1N1CCOCC1)S(=O)(=O)c1ccc(Cl)cc1	-1	-3	-2.0	3786	.	.	8
CCC(C(=O)N1CCN(Cc2ccc3c(c2)OCO3)CC1)n1c(=O)[nH]c2ccccc2c1=O (stereo not given)	-2	8	-1.1	5975	-7	6	-4
CCOC(=O)c1c(C)c(C(=O)NCc2cccs2)c(C)n1CC	0	-21	6.0	20405*	13	8	-10
COC(=O)c1ccc(COC(=O)c2cccnc2Cl)cc1	7	-48	3.5	4066	1	-6	5
COc1ccc(N(CC(=O)NCc2cccnc2)S(=O)(=O)c2ccccc2)c(OC)c1	9	-14	0.8	5779	.	.	6
O=C(Nc1cccc(OC(=O)c2ccc(Br)o2)c1)c1ccccc1	6	-23	5.6	4704	4	2	-11
Cc1ccccc1Nc1ncc(C#N)c(N)n1	3	.	2.3	4383	9	7	-3
S=c1[nH]nc(C2CCCCC2)n1/N=C/c1ccccc1Cl	.	-27	.	4102	.	.	-11
O=C(Cc1cccs1)NCc1ccc(Cl)cc1Cl	9	-46	3.5	3191	8	1	1
COc1cccc(-n2c(=O)c3c(C)c(C(=O)N(C)C)sc3n(CC(=O)NCCc3ccc(OC)c(OC)c3)c2=O)c1	2	-4	5.4	4053	-3	0	-14
COc1ccc(OC)c(NC(=O)CSc2nnc(CNC(=O)c3ccccc3F)o2)c1	12	3	3.3	3942	-13	-13	-11
Cc1cc(NC(=O)c2cccc([N+](=O)[O-])c2)n(-c2ccccc2)n1	4	11	3.1	2525	1	8	20
COCCNC(=O)CN1C(=O)COc2ccc(S(=O)(=O)N3CC(C)CC(C)C3)cc21 (stereo not given)	-14	-1	2.8	5910	.	.	-17
